TRPV1 potentiator = potentiators of human vanilloid receptor 1 (TRPV1) | 0.02% of 320,000 active | potentiation, % at 8.33 µM | TRPV1-expressing cells, Fluo-8 calcium influx, capsaicin EC20 potentiation; host cell line not named in the record; control for the full effect not named in the record | Q8NER1; active means potentiation above 80%; inconclusive means 30% to 80%; inactive means below 30%; also: 0% is about no effect
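Cells expressing TRPV1 were dye-loaded with Fluo-8 and read kinetically: 10 s baseline, 3 min after compound (agonist portion), then 2 min after EC20 capsaicin (allosteric enhancer portion). Calcium-bound dye fluorescence at 480/520 nm.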
D2 potentiator = potentiates the human D2 dopamine receptor allosterically. P14416. potentiation, % (test concentration not listed). 0.23% of 360,000 active. DiscoveRx D2 beta-arrestin cells, luminescence, 90 min; 100% = 57 uM dopamine signal. AID 624464; active = potentiation of 50% or more; inconclusive = 30% to 50%; inactive = 30% or less;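 also: compound concentration not given in the record; tested on top of an EC20 dose of dopamine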
Target sequence (P14416 whole entry, looked up): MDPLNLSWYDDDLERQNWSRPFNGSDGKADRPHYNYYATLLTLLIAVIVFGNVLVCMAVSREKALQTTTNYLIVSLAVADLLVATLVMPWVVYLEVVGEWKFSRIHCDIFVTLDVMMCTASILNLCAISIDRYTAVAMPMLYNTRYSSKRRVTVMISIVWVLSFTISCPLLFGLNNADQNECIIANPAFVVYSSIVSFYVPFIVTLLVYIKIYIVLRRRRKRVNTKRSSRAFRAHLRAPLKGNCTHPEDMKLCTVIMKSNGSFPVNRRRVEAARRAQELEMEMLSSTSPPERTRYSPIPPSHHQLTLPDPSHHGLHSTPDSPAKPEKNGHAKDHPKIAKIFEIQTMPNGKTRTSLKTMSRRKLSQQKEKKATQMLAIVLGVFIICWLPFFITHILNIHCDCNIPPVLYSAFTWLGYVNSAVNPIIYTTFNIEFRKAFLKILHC
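D2 cells co-treated with compound plus 50 nM dopamine (EC20) for 90 min at 37 deg C to detect potentiation. Beta-arrestin recruitment was read as enzyme-fragment luminescence after 1 h at ambient temperature. Full response was set by 57 uM dopamine.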
CtBP-E1A inh = blocks the CtBP interaction with E1A; 0.49% of 340,000 active; AlphaScreen GST-E1A/His-CtBP binding, 1536-well; stronger effect = lower value; control for the full effect not named in the record; activity change, % (no concentration beside the values); in the data active means activity change below about -65%; inconclusive means about -30% to -65%; inactive means above about -30%; also: % is scaled to controls: 0 for no effect and ±100 for the full control effect; compound concentration not given in the record
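GST-E1A and His-tagged CtBP (125 nM each as 5X stock) were preincubated with pin-transferred compound for 2 h at 37 °C in the dark, then glutathione donor and nickel acceptor beads were added for 1 h before AlphaScreen reading.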
D2 ag = activates the human D2 dopamine receptor; 0.084% of 360,000 active; P14416; activation, % (no concentration beside the values); DiscoveRx PathHunter D2 beta-arrestin, luminescence, 90 min; 100% = 57 uM dopamine signal; in the data active = activation above about 40%; inconclusive = about 15% to 40%; inactive = below about 15%; also: compound concentration not given in the record; the text of the record calls up to 30% inactive
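Agonist mode: compounds alone added to overnight-plated D2 PathHunter cells for 90 min at 37 C, with 57 uM final dopamine (EC100) defining full response. Beta-arrestin recruitment detected by chemiluminescent reagent, read after 1 h at ambient temperature.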
Six1-Eya2 inh = Six1/Eya2 interaction inhibition. Q15475+O00167. AlphaScreen GST-Six1/His-Eya2 binding, biochemical; stronger effect = lower value; control for the full effect not named in the record. activity change, % (concentration not given with the values). 0.56% of 360,000 active; in the data active = activity change below about -65%; inconclusive = about -30% to -65%; inactive = above about -30%; also: % is scaled to controls: 0 for no effect and ±100 for the full control effect
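AlphaScreen luminescence read after one hour at 37 °C in darkness. Pin-transferred compounds met GST-Six1 and His-Eya2 protein (5X stock 250 nM/500 nM) plus glutathione donor and Ni-chelate acceptor beads (5X, 50 ug/mL).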
PINK1 expr mod = PINK1 expression modulation. PINK1 immunofluorescence, high-content cytometry, 24 h. Potency, µM (top dose mostly 76.6 µM), for the others: at the highest dose activation (PINK1 increase), hits mostly activators. 0.2% of 410,000 active; active = well fitted activation curve with a large enough effect; inconclusive = small, poorly fitted or top-dose-only effect; inactive = flat fitted curve, though single readings scatter; cell line not stated here;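 also: potency is read from the fitted curve at half-maximal effect; % of control where 0% means no effect; nearly all actives have a fitted effect of over 65% in size; a mitochondrial uncoupler was the plate control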
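PINK1 protein level read as immunofluorescence by microplate cytometer in a fixed, stained stable cell line after 24 h exposure to five compound concentrations, with CCCP as control.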
Sfp PPTase inh = Sfp phosphopantetheinyl transferase inhibition | Q9F4F7 | Biochemical Sfp PPTase activity, qHTS | Potency, µM, without a hit: max response, negative = inhibition, hits mostly inhibitors | 3.5% of 310,000 active; active = well fitted inhibition curve with a large enough effect; inconclusive = small, poorly fitted or top-dose-only effect, or another doubt; inactive = no such curve, though single readings can be large or run the other way;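 also: the enzyme is Sfp with the accession as filed and its product quenches rhodamine fluorescence; potency is read from the fitted curve at half-maximal effect; 0% = enzyme reaction without inhibitor and -100% = no enzyme wells; top concentration of the series not given in the record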
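Fluorescence-quenching assay with 15 nM Sfp, 5 uM rhodamine-CoA and 12.5 uM BHQ-2-labelled ybbR peptide in pH 7.6 Hepes/MgCl2 buffer. Enzyme was pre-incubated with compound for 15 min at room temperature. Rate was taken from the 30-min fluorescence change (525/598 nm).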
* marks the source's active call; other numbers are inactive results; ? = inconclusive; · = no result given; [ ] = another dose, or the depositor's remark.

Each structure is followed by: Sfp PPTase inh, TRPV1 potentiator, D2 potentiator, CtBP-E1A inh, D2 ag, PINK1 expr mod, Six1-Eya2 inh
COc1ccc(-c2nn(-c3ccccc3)cc2C(=O)Nc2nccs2)cc1OC
 : 8%, -10, -33, -11, -1.6, 4.3%, -13
CC(OC(=O)c1ccc(S(=O)(=O)N2CCCCC2)cc1)C(=O)Nc1ccc(C(N)=O)cc1 (stereo not drawn)
 : ·, -9, 0, 7, -0.9, ?, 3
COC(=O)c1noc(C)c1-c1ccnn1C(=O)c1ccc(C)cc1
 : 4%, 11, -6, 4, 3.4, -0.2%, 16
C#CC1(NC(=O)NCCCC)CCCCC1
 : -7%, -13, -7, 5, -2.3, 0.7%, 8
CCn1c(SCC(=O)N2CCCC2)nc2c(c1=O)SC(C)C2 (stereo not drawn)
 : 4%, -7, -2, 4, -4.0, 1.6%, 0
COc1cc(C(=S)N2CCOCC2)ccc1OC(=O)c1ccccc1C
 : -15%, -9, -1, -17, -2.9, -0.5%, -6
Cc1occc1C(=O)NNC(=O)CN1C(=O)NC(C)(c2ccccc2)C1=O (stereo not drawn)
 : ·, -8, -1, -24, 0.6, 1.0%, -1
NC(=NC(=O)c1ccc(OCC(F)(F)F)nc1)c1ccc(Cl)cc1
 : -1%, -9, -1, 13, 1.1, 15%, 10
Nc1ccc(C(=O)N2CCN(S(=O)(=O)c3ccc(Cl)s3)CC2)cc1[N+](=O)[O-]
 : ·, -9, 10, 5, -0.5, -1.4%, 19
O=C(COC(=O)c1ccc(Cl)nc1)NCc1ccc(F)cc1
 : ·, ·, -20, 9, -4.0, -0.3%, 2
CSc1nc2nc3c(cc2c(=O)[nH]1)C(O)Oc1ccc(C)cc1-3 (stereo not drawn)
 : 13%, 16, -3, -24, -7.4, 2.3%, -17
CCOc1ccc(CCNC(=O)COC(=O)CCS(=O)(=O)c2ccc(C)cc2)cc1OCC
 : ·, -4, -6, 0, -5.9, 0.3%, 0
Cc1cc(Cl)c(OCCOCCN2CCNCC2)c(Cl)c1
 : ·, ·, -26, ·, -5.7, 1.6%, 2
O=C1NC(Cc2ccccc2)C(=O)N1Cc1ccccc1 (stereo not drawn)
 : ·, ·, -2, -1, -1.3, -0.4%, 9
CCOc1ccc(OCc2ccc(C(=O)NC(C)C)o2)cc1
 : 13%, 0, -7, ·, 14, 0.3%, 8
Cc1ccc(-n2c(C)nnc2SCC(=O)N(C)C2CCS(=O)(=O)C2)cc1 (stereo not drawn)
 : ·, 0, 1, 5, -1.5, 1.6%, 2
CCOC(=O)N1CCN(CC(=O)c2ccc3c(c2)CCN3)CC1
 : 15%, -1, -24, 3, 0.4, 3.6%[38.3 µM], -1
Brc1cccc(OCCN2CCc3ccccc3C2)c1
 : -2%, 8, -2, 13, -4.4, 11%, 14
COc1cccc(N2CCN(C(=S)Nc3ccccc3OC)CC2)c1
 : 6%, -5, -4, 4, 1.9, 2.0%, -11
Cc1ccc(OCc2nnc(SCC(=O)Nc3ccc(N4CCOCC4)cc3)o2)cc1
 : 12%, -4, -8, 25, 2.5, 1.8%, 10
COc1ccc(NC(=O)CN(c2ccccc2F)S(=O)(=O)c2ccc(C)cc2)c(OC)c1
 : 12%, -21, -17, -2, -2.8, 3.0%, -20
Cc1cc(/C=N/NC(=O)CC#N)c(C)n1-c1ccc([N+](=O)[O-])cc1
 : -1%, 2, -11, -10, 2.1, 2.2%, -25
CCCCNC(=O)COC(=O)c1c2c(nc3ccccc13)/C(=C\c1cccs1)CC2
 : ·, ·, -1, 50, 7.8, 3.4%, 26
COc1cccc(C(=O)N2CCC[C@@H]2C(=O)N2CCC[C@H]2C(=O)NCc2ccncc2)c1
 : ·, ·, ·, 0, ·, 0.4%, 6
COc1ccc(-c2cc(C(=O)NN)[nH]n2)cc1
 : -4%, 17, -4, -19, -1.1, 6.4%, -6
Nc1ccc2c(c1)C(=O)c1ccc(N)cc1-2
 : ·, ·, 14, -27, 1.9, 2.7%, -22
COc1ccc(NC(=O)CSc2ccc3nnc(-c4ccccn4)n3n2)cc1
 : 0%, 6, -5, 29, -4.8, 1.6%, -28
C=CCOc1ccc(/C=C2\SC(N3CCCCC3)=NC2=O)cc1
 : 21%, 14, 0, 4, -1.4, -0.1%, 7
Cc1ccc2nc(SCC(=O)N3CCCc4ccccc43)nc(=O)n2c1
 : ·, ·, -12, -2, -6.7, -1.3%, 10
CC(=O)C1=C(Nc2ccc(C)cc2)CC(C)(O)C(C(C)=O)C1c1ccco1 (stereo not drawn)
 : 16%, -11, -6, -2, 3.1, -1.9%, -3
COc1cc(OC)cc(C(=O)N[C@H](C(=O)OCC(=O)c2ccc(C)c([N+](=O)[O-])c2)C(C)C)c1
 : ·, ·, -33, 0, -6.3, 2.2%, -14
Cc1cnc(C)c(Nc2nc(C(N)Cc3ccccc3)cs2)n1 (stereo not drawn)
 : ·, ·, -16, ?, -7.4, 5.9%, ?
O=C(Nc1ccc2c(c1)OCO2)N1CCN(C/C=C/c2ccccc2)CC1
 : 18%, -13, -13, -15, -0.3, -2.6%[38.3 µM], -9
O=C(O)CC(c1cccc(Cl)c1)n1cccc1 (stereo not drawn)
 : -10%, 3, -21, 4, -2.1, -1.7%, 1
O=[N+]([O-])c1ncn(Cc2ccccc2Cl)n1
 : 7%, 2, 1, 5, 2.1, 1.1%, 8
O=C(N/N=C\c1coc2ccccc2c1=O)c1ccco1
 : 8%, -1, 0, 2, -0.2, -0.4%, 4
O=C(CSc1nc2ccccc2nc1SCC(=O)N1CCOCC1)N1CCOCC1
 : ?, 5, -7, 1, -0.6, -0.5%, 4
COc1cc2c(cc1OC)CN(C(=S)Nc1ccc(Cl)cc1)CC2
 : 8%, 10, -9, 1, -0.1, 1.0%, -14
Cc1nc(C(=O)Nc2ccc(Cl)cc2)sc1C1(C)CC(c2cccc([N+](=O)[O-])c2)=NO1 (stereo not drawn)
 : ·, ·, 0, -9, 8.1, -0.1%, -10
COc1ccccc1NC(=O)C(C)OC(=O)CC1CCCC1 (stereo not drawn)
 : 16%, 4, -4, -14, -1.9, 0.5%, 12
CC(C)Cc1cc(C(=O)N2CCCC(CO)(Cc3ccc(F)cc3F)C2)n[nH]1 (stereo not drawn)
 : 18%, -3, -18, ·, 0.4, -0.2%, -1
O=[N+]([O-])c1cc(S(=O)(=O)N2CCCCCC2)ccc1Cl
 : 11%, -8, 2, -2, 1.6, -0.7%, -7
O=C(C1CC1)N1CCN=C1SCc1ccccc1Cl
 : 7%, -1, -11, -9, -2.8, 1.1%, 13
Cc1cc(NC(=O)CC(C)C)c(=O)n(Cc2cccc(F)c2)c1
 : 7%, -11, 6, ·, -6.1, 1.4%, 0
C/C(=N\NC1=NCCN1)c1ccc(Cl)cc1
 : -1%, 11, -20, -2, -0.3, 0.3%, 8
CCCCSc1nnc(CNC(=O)C23CC4CC(CC(C4)C2)C3)n1Cc1ccccc1
 : -7%, 2, 2, 1, -2.0, ?, -11
CCOc1cccc(CNn2cnnc2)c1OCc1ccccc1Cl
 : 19%, -9, -3, 9, -2.7, 0.1%, -11
CCOC(=O)C1=CC[C@@H](c2ccc(F)cc2)N(S(=O)(=O)c2ccc(C)cc2)[C@H]1c1ccccc1
 : ·, ·, -5, -7, -5.1, 4.4%, 5
COc1ccc(-n2ccn3c(CCC(=O)N4CCN(c5cccc(C)c5C)CC4)nnc3c2=O)cc1
 : -5%, 3, -7, 0, -0.7, 8.6%, 10
COc1cccc2sc(Nc3nc(-c4cc5ccccc5oc4=O)cs3)nc12
 : ?, 2, -12, -23, -4.0, 8.5%, 18
CSCCC(NC(=O)c1ccc(Cl)cc1Cl)C(=O)OCC(N)=O (stereo not drawn)
 : 14%, -4, -2, 7, 1.6, -2.0%, -1
O=c1[nH]c2ccccc2nc1/C=C(\O)C(F)F
 : 1%, 13, -8, 0, -4.8, -1.1%, -4
Cc1cc(C)c(S(=O)(=O)N(C)CC(=O)NCc2cccnc2)c(C)c1
 : 18%, -9, -5, -3, 3.6, 0.2%, -2
CCCn1c(CN2CCN(C(=O)c3ccco3)CC2)nc2cc(S(=O)(=O)N(C)C)ccc21
 : ·, 7, -19, -20, -3.8, -1.2%, 12
Cc1cc(C(=O)OCC(=O)Nc2cccnc2Cl)c2ccccc2n1
 : 2%, -3, -2, -1, 3.4, -0.2%, -3
N#C/C=C/N1CCN(Cc2ccc3c(c2)OCO3)CC1
 : 10%, -4, -11, 5, 0.9, 1.1%, 4
Cc1ccc(S(=O)(=O)NC(=O)Nc2cc(C)on2)cc1
 : 20%, -16, -6, -9, 4.0, 0.0%, -2
Cc1ccc(CCNC(=O)C2CC(c3cccc(F)c3)=NO2)cc1 (stereo not drawn)
 : 2%, -15, -3, 3, -0.2, 1.1%, 7
O=C(Nc1ccc(S(=O)(=O)NCCc2ccccc2)cc1)c1ccc(Br)o1
 : 9%, 5, -1, -4, -1.2, 7.1%[38.3 µM], -4
Cc1ccc(S(=O)(=O)NCC(c2ccco2)S(=O)(=O)c2ccccc2)cc1 (stereo not drawn)
 : ·, 13, 2, 4, -2.1, 0.8%, -6
Cc1ccc(N2C(=O)CC(C)(C)CC2=O)cc1Cl
 : 6%, -4, -9, 1, -4.4, -0.5%, -21

Some of these compounds in order of the CtBP-E1A inh value, falling.
canonical_smiles,Sfp PPTase inh,D2 potentiator,CtBP-E1A inh,D2 ag,PINK1 expr mod,Six1-Eya2 inh
Cc1ccc(CCNC(=O)C2CC(c3cccc(F)c3)=NO2)cc1 (stereo not drawn),2%,-3,3,-0.2,1.1%,7
O=c1[nH]c2ccccc2nc1/C=C(\O)C(F)F,1%,-8,0,-4.8,-1.1%,-4
Cc1cc(C)c(S(=O)(=O)N(C)CC(=O)NCc2cccnc2)c(C)c1,18%,-5,-3,3.6,0.2%,-2

Screens: PubChem, National Center for Advancing Translational Sciences (NCATS)

Outcome played no part in choosing rows, and some 3.7% of all compounds hit somewhere here.
